Source: PubChem (ICCB-Longwood Screening Facility, Harvard Medical School)
GIV-Gai inh = inhibitors of GIV GBA-motif binding to rat Galpha-i3. P08753. Galpha-i3/FITC-GIV peptide fluorescence polarization, 90 min; hits give low values; scaled: aluminum fluoride 0%, vehicle 100%. percent of control (FP), % (no concentration beside the values). 210,000 tested, 0.42% active;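 active means replicate mean at 85% of control or lower, very high polarization wells dropped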;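 further: wells of about 15 µL received 100 nL stock; the first replicate is given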
Target sequence (P08753 whole entry, looked up): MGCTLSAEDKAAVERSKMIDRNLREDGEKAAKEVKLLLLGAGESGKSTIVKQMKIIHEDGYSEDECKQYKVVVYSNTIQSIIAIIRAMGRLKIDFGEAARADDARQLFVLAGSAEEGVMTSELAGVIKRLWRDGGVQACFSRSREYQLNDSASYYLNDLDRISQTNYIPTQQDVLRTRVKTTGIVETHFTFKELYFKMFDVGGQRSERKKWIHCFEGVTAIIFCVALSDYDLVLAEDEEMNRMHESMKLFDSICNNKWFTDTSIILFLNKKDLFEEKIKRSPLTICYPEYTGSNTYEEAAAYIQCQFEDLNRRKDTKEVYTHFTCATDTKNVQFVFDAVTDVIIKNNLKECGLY
Sa growth 42C = blocks Staphylococcus aureus growth | relative growth, % (test concentration not listed) | 170,000 tested, 0.53% active | S. aureus RN4220 growth, OD600, 20 h, 42 °C; hits give low values | AID 720641;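 active means growth at 42 °C up to 50% and 20 or more points under that at 30 °C, or under 10% at both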;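 further: 300 nL library stock went into each well; scaled to the means of positive and negative controls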
HCMV NEC inh = inhibitors of HCMV UL50-UL53 nuclear egress complex interaction; HTRF UL50-UL53 interaction, normalized percent inhibition; inhibition, % (concentration not given with the values); 190,000 tested, 0.15% active; AID 1918969;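 active means both replicates at 50% or more, plus weaker picks with an unusually low signal ratio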;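 further: stock transfer was 100 nL into about 20 µL; 0% = negative control wells and 100% = wells with untagged competitor protein; inactives centre near -12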
Sa growth 42C second temp = second read-out of Sa growth 42C, no call of its own (marks repeat the call); relative growth, %; measured here: growth at 30 °C;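 optical density after 20 h as mean of two plates; 100% = untreated growth and lower means inhibition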
* marks the source's active call; other numbers are inactive results; nt = no result given.

nr | SMILES | GIV-Gai inh | Sa growth 42C
1 | O=C(O)c1ccccc1Sc1ncnc2sccc12 | nt | 71
2 | O=C1CCc2c1[nH]c1ccc(OCc3ccccc3)cc21 | 94 | 90
3 | CCOc1ccccc1CNC(=O)CCC(=O)N1CCSc2ccccc21 | 107 | 81
4 | Cc1ccc(SCC(=O)Nc2ccc(F)cc2)cc1 | 102 | 87
5 | COc1ccc(N(C(C)=O)S(=O)(=O)c2ccc(F)cc2)cc1 | 105 | 117
6 | Cn1c(C(C#N)C(=O)COc2ccc(Cl)cc2)nc2ccccc21 (stereo unspecified) | nt | 74
7 | NS(=O)(=O)c1ccc(CCNC(=O)c2cc3c(s2)-c2ccccc2OC3)cc1 | 103 | 88
8 | O=C1NC(=O)C(Nc2ccccc2Cl)S1 (stereo unspecified) | 99 | 95

nr | Sa growth 42C second temp | HCMV NEC inh
1 | 90 | -18
2 | 81 | -17
3 | 93 | nt
4 | 87 | -6
5 | 99 | -9
6 | 90 | 0
7 | 89 | nt
8 | 74 | -24

Next part.
nr | SMILES | GIV-Gai inh | Sa growth 42C
9 | Cc1c(Nc2ncnc3c2cnn3C)c(=O)n(-c2ccccc2)n1C | 96 | 99
10 | CCOc1ccccc1NC(=O)c1cc(=O)[nH]c2ccccc12 | 98 | 105
11 | Cc1[nH]c2ccccc2c1C(=O)CN1CCN(S(=O)(=O)/C=C/c2ccccc2)CC1 | nt | 113
12 | COc1ccc(C(CC#N)C(C)C)cc1 (stereo unspecified) | 102 | 108
13 | O=C(c1nnc(Cc2ccc(F)cc2Cl)o1)N1CCCC1 | 102 | 79
14 | COc1ccc(Cl)cc1NC(=O)C1CCN(S(=O)(=O)c2c(C)[nH]c(C)c2C(=O)N2CCCC2)CC1 | 107 | nt
15 | COc1ccc(NC(=O)CC2C(=O)N(c3ccc(F)cc3)C(=O)N2CCc2sccc2C)cc1 (stereo unspecified) | 102 | 113
16 | COC(=O)N1C2C=CC(C2)C1(C(F)(F)F)C(F)(F)F (stereo unspecified) | 102 | 94

nr | Sa growth 42C second temp | HCMV NEC inh
9 | 92 | -4
10 | 102 | 14
11 | 59 | -11
12 | 95 | -3
13 | 86 | nt
14 | nt | -17
15 | 77 | -31
16 | 94 | -2

Reprinted from the part before: four entries; new compounds follow.
nr | SMILES | GIV-Gai inh | Sa growth 42C
13 | O=C(c1nnc(Cc2ccc(F)cc2Cl)o1)N1CCCC1 | 102 | 79
14 | COc1ccc(Cl)cc1NC(=O)C1CCN(S(=O)(=O)c2c(C)[nH]c(C)c2C(=O)N2CCCC2)CC1 | 107 | nt
15 | COc1ccc(NC(=O)CC2C(=O)N(c3ccc(F)cc3)C(=O)N2CCc2sccc2C)cc1 (stereo unspecified) | 102 | 113
16 | COC(=O)N1C2C=CC(C2)C1(C(F)(F)F)C(F)(F)F (stereo unspecified) | 102 | 94
17 | Cc1ccccc1NC(=O)Cn1c(=O)n(Cc2ccco2)c(=O)c2cccnc21 | 118 | 108
18 | CNc1nc2ccccc2n1CCO | 103 | 83
19 | CCN(CC)CN1C(=O)C2C3c4ccccc4C(c4ccccc43)C2C1=O (stereo unspecified) | 100 | 95
20 | CCOC(=O)C1CCN(C(=O)C2=C(C)C(=O)OC23CCN(S(C)(=O)=O)CC3)CC1 | 114 | nt
21 | CC(C)Cn1c(=O)c2ccc(C(=O)NC3CCCC3)cc2n2c(=S)[nH]nc12 | 101 | nt
22 | c1ccc(Nc2c(-c3ccccc3)nc3ncccn23)cc1 | 106 | 97
23 | O=C(CSc1cn(CC(=O)N2CCCC2)c2ccccc12)Nc1ccc(Cl)cc1 | 105 | 97
24 | O=C1c2ccccc2C(=O)N1CCCc1nc(-c2ccc(Cl)cc2)no1 | 103 | 61

nr | Sa growth 42C second temp | HCMV NEC inh
13 | 86 | nt
14 | nt | -17
15 | 77 | -31
16 | 94 | -2
17 | 92 | -21
18 | 93 | -3
19 | 97 | -53
20 | nt | -14
21 | nt | 7
22 | 92 | -20
23 | 82 | nt
24 | 93 | nt

Following part.
nr | SMILES | GIV-Gai inh | Sa growth 42C
25 | COc1ccc2cc(/C=C3/C(=O)NC(=S)N3C(C)=O)c(N3CCOCC3)nc2c1 | 135 | 94
26 | Fc1ccccc1CN1CCC(CNc2nn3nnnc3c3ccccc23)CC1 | 104 | nt
27 | CCCCC(=O)Nc1ccc2nc(SCC(=O)N3CCc4ccccc43)sc2c1 | 98 | 100
28 | CC(=NCc1ccc(C)cc1)c1c(O)cc(C)oc1=O | nt | 84
29 | CCOC(=O)c1[nH]c2ccccc2c1NC(C)=O | 109 | 95
30 | O=C(CSC1=NCCS1)N1CCN(c2ccccc2)CC1 | 102 | 130
31 | CC(C)NCc1ccc(-c2cc(Cl)ccc2Cl)o1 | 108 | nt
32 | CCCCn1c(SCc2c(C)noc2C)nc2c(sc3ncccc32)c1=O | 101 | nt

nr | Sa growth 42C second temp | HCMV NEC inh
25 | 102 | -14
26 | nt | -19
27 | 97 | 10
28 | 88 | -15
29 | 90 | -4
30 | 78 | nt
31 | nt | -21
32 | nt | 18

The list goes on:
nr | SMILES | GIV-Gai inh | Sa growth 42C
33 | NS(=O)(=O)c1ccc(NC(=O)CCCC(=O)N2CCOCC2)cc1 | 100 | 85
34 | O=C(CSc1nccn2nc(-c3ccc(Cl)cc3)cc12)Nc1ccc2c(c1)OCCO2 | 104 | nt
35 | COc1ccc(-c2cc(C(=O)Nc3ccc4c(c3)OCO4)no2)cc1 | 103 | 102
36 | Cc1cc(C)nc(-n2nc(C)cc2NC(=O)c2ccc(Cl)c(S(=O)(=O)N3CCOCC3)c2)n1 | nt | 79
37 | Fc1ccc(Cn2[nH]nnc2=S)cc1 | 94 | 94
38 | CCn1c(Cn2cc(S(=O)(=O)N3CCCC3)ccc2=O)nc2cc(S(=O)(=O)N(C)C)ccc21 | nt | 98
39 | C=CCn1c(C)cc(C(=O)Cn2c(CN3CCOCC3)nc3ccccc3c2=O)c1C | nt | 86
40 | CCC(=O)Nc1cc2c3c(c1)CCN3C(=O)CC2 | 98 | 88

nr | Sa growth 42C second temp | HCMV NEC inh
33 | 86 | -38
34 | nt | -2
35 | 92 | -1
36 | 96 | 7
37 | 80 | 32
38 | 89 | -20
39 | 88 | -15
40 | 87 | -30

The listing continues.
nr | SMILES | GIV-Gai inh | Sa growth 42C
41 | CCN(CC)CCNC1CCN(CC)CC1 | 100 | 86
42 | CCn1c(N)c(C(N)=O)sc1=S | nt | 92
43 | COc1ccc(CN2CC(C(=O)NCCCN3CCCCCC3)CC2=O)cc1 (stereo unspecified) | 109 | 114
44 | Cc1nnc2ccc(N3CCC(C(=O)N4CCN(c5ccc(Cl)cc5)CC4)CC3)nn12 | 99 | nt
45 | O=C(O)CSCC(=O)Nc1nc(SCc2ccc(Cl)cc2)n[nH]1 | 100 | 105
46 | CCOC(=O)N1CCN(C(=O)Cc2c(C(=O)O)n(C)c3ccccc23)CC1 | 101 | 101
47 | CC(=O)Nc1[nH]c2c(c1C#N)CCCCC2 | nt | 85
48 | O=C(Nc1ccc2c(c1)OCCO2)N1CCN2CCCCC2C1 (stereo unspecified) | 103 | 99

nr | Sa growth 42C second temp | HCMV NEC inh
41 | 97 | -10
42 | 70 | -38
43 | 105 | -2
44 | nt | 1
45 | 91 | -8
46 | 88 | -21
47 | 101 | 1
48 | 94 | -19

Following part
nr | SMILES | GIV-Gai inh | Sa growth 42C
49 | O=C(O)c1ccc(Cl)cc1N=Cc1nc(-c2ccccc2Br)oc1O | 100 | nt
50 | O=C(Nc1ccc(Cl)cc1)N1CCCN(Cc2ccccc2F)C1 | 101 | 93
51 | CC(C)C1C(=O)OC2(C)CC(C)(C)NC(=S)N12 (stereo unspecified) | nt | 96
52 | Cn1c2ccccc2c2cnn(CNC(=O)Nc3ccc(F)cc3)c(=O)c21 | 105 | 104
53 | Cc1ccc2nc(-c3ccc(C(F)(F)F)cc3)oc2c1 | 101 | 93
54 | Cc1cccc2c1-c1sc(C(=O)NCCN3CCCCC3C)cc1CO2 (stereo unspecified) | 108 | 101
55 | Cc1ccccc1C(=O)NCC1CCCN2CCCCC12 (stereo unspecified) | 99 | 97
56 | Cc1ccc(/C=C/c2onc(C)c2S(=O)(=O)N2CCC(C(=O)NCC(C)c3ccccc3)CC2)cc1 (stereo unspecified) | 99 | 91

nr | Sa growth 42C second temp | HCMV NEC inh
49 | nt | -27
50 | 62 | nt
51 | 87 | 2
52 | 80 | nt
53 | 87 | -52
54 | 82 | nt
55 | 89 | -2
56 | 91 | nt

Further entries follow:
nr | SMILES | GIV-Gai inh | Sa growth 42C
57 | COc1ccc(-c2c(C)c3ccc(OC(=O)N4CCOCC4)cc3oc2=O)cc1 | 104 | 88
58 | O=C(N/N=C/c1sc(N2CCCCC2)nc1-c1cccs1)c1ccccc1 | nt | 77
59 | O=C(NCCc1ccccc1)c1cc(-c2cccs2)on1 | 105 | 102
60 | COc1ccccc1N1CCN(C(=O)Cn2cnc3onc(-c4ccc(F)cc4)c3c2=O)CC1 | 104 | 89
61 | CC(c1ccccc1)C1OCC(CN2CCCCC2)O1 (stereo unspecified) | 99 | 88
62 | O=c1cc(N2CCCC2)[nH]c(=O)n1-c1ccc(Cl)cc1 | 99 | 108
63 | COCCNC(=O)c1cccc2c1SCCC2=O | 98 | 96
64 | CCCCNC(=O)CCn1c(=S)[nH]c2c(oc3ccccc32)c1=O | 103 | nt

nr | Sa growth 42C second temp | HCMV NEC inh
57 | 87 | -27
58 | 97 | -21
59 | 83 | -11
60 | 90 | nt
61 | 82 | -23
62 | 97 | 2
63 | 106 | -2
64 | nt | -19

More results.
nr | SMILES | GIV-Gai inh | Sa growth 42C
65 | COc1cccc(C(=O)Nc2c(-c3ccccc3)nc3cc(C)ccn23)c1 | 104 | nt
66 | CN(c1ccccc1)S(=O)(=O)c1cc2c3c(c1)CCC(=O)N3CCC2 | 99 | 97
67 | CN(CC(=O)N1CCCC1)c1ccc(NC(=O)c2ccc(Br)cc2)c(C(=O)O)c1 | 102 | nt
68 | COc1cccc(NC(=O)Cn2ncc3c(=O)oc4ccccc4c32)c1 | 98 | 106
69 | CC(C)C(NC(=O)c1ccc(C23CC4CC(CC(C4)C2)C3)cc1)C(=O)N(C)Cc1ccco1 (stereo unspecified) | 100 | 111
70 | Cc1c(C(=O)Nc2cccc(C#N)c2)sc2nc3n(c(=O)c12)CCCCC3 | 99 | 105
71 | COc1cc2nc(SCc3ccc(F)cc3)n3nc(-c4ccccc4)nc3c2cc1OC | 104 | 111
72 | CN(C)S(=O)(=O)c1ccc(N2CCCC2)c(C(=O)OCc2ccc(F)cc2)c1 | nt | 140

nr | Sa growth 42C second temp | HCMV NEC inh
65 | nt | -12
66 | 96 | 0
67 | nt | -29
68 | 94 | 0
69 | 97 | nt
70 | 90 | -25
71 | 87 | nt
72 | 99 | -16

Further results follow.
nr | SMILES | GIV-Gai inh | Sa growth 42C
73 | Cc1cscc1NC(=O)/C=C/C(=O)O | 99 | 104
74 | CCCNC(=O)Cn1cc(S(=O)(=O)N2CCCC2)c(S(=O)(=O)N2CCCC2)c1 | 104 | 100
75 | Cc1ccc(CN2CCCn3nc(C(=O)NCCc4ccccc4C)cc3C2=O)cc1 | 95 | 95
76 | O=C(O)CCC(=O)N(Cc1cccs1)Cc1cccs1 | 105 | 108
77 | CCOC(=O)/C(C)=C1\NC(C)(C)Cc2ccccc21 | 98 | 63
78 | CCOc1ccc(CCNC(=O)c2ccc3c(c2)N(Cc2ccc(F)cc2)CCS3)cc1 | 108 | 106
79 | CC(C)N(C(=O)CSc1nnc(Cc2cccs2)n1CCc1ccccc1)C(C)C | nt | 100
80 | CC1CCCCC1NC(=O)C1c2cccn2CC(=O)N1Cc1ccccc1 (stereo unspecified) | 104 | 107

nr | Sa growth 42C second temp | HCMV NEC inh
73 | 98 | -1
74 | 96 | -5
75 | 90 | nt
76 | 78 | -23
77 | 101 | -6
78 | 95 | 9
79 | 92 | 2
80 | 95 | -6

Compounds shown so far that have a cyano group (four):
nr | SMILES | GIV-Gai inh | Sa growth 42C
6 | Cn1c(C(C#N)C(=O)COc2ccc(Cl)cc2)nc2ccccc21 (stereo unspecified) | nt | 74
12 | COc1ccc(C(CC#N)C(C)C)cc1 (stereo unspecified) | 102 | 108
47 | CC(=O)Nc1[nH]c2c(c1C#N)CCCCC2 | nt | 85
70 | Cc1c(C(=O)Nc2cccc(C#N)c2)sc2nc3n(c(=O)c12)CCCCC3 | 99 | 105

nr | Sa growth 42C second temp | HCMV NEC inh
6 | 90 | 0
12 | 95 | -3
47 | 101 | 1
70 | 90 | -25

Further structures:
nr | SMILES | GIV-Gai inh | Sa growth 42C
81 | COc1ccc(C2CC(=O)N(c3cc(C)cc(C)c3)C(=O)C2)cc1OC | 99 | nt
82 | N#Cc1cccc(CSc2nc(NC3CC3)c3ccccc3n2)c1 | nt | 91
83 | CC(CNS(=O)(=O)c1ccc2c(c1)CC(=O)N2C)c1ccccc1 (stereo unspecified) | 110 | 106
84 | Cc1ccc(NC(=O)C2CCCN(c3ncnc4onc(C)c34)C2)cc1Cl (stereo unspecified) | 112 | 110
85 | COc1ccc(CC(=O)N(CC#N)CC#N)cc1OC | nt | 105
86 | CC(c1ccccc1)n1cnc2ccccc2c1=O (stereo unspecified) | nt | 109
87 | COc1ccc(-c2cn3c(n2)sc2cc(C(=O)Nc4ccc(F)cc4)ccc23)cc1 | 109 | 113
88 | COc1ccc(C(=O)Nc2ccc(S(=O)(=O)Nc3cc(C)nc(C)n3)cc2)cc1 | 110 | 89

nr | Sa growth 42C second temp | HCMV NEC inh
81 | nt | -6
82 | 85 | -37
83 | 105 | nt
84 | 101 | nt
85 | 74 | 4
86 | 88 | -6
87 | 88 | nt
88 | 90 | -30
